UCH37 DUB inh: blocks the human deubiquitinase UCH37; Q9Y5K5; purified proteasome/UCH37, Ub-AMC cleavage fluorescence; inhibition, % (test concentration not listed); hit rate 0.33% among 330,000; AID 588478;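 active = mean of two replicates above 20%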;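 note: 0% = compound-free wells with enzyme and 100% = wells lacking proteasome; stock transfer was 100 nL into about 20 µL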
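Material: human UCH37 enzyme supplied as purified proteasome complex. Measure: % inhibition of Ub-AMC cleavage fluorescence. Medium: pH 7.4 Tris-HCl (50 mM) with ovalbumin, ATP-MgCl2, DTT. Times: 30 min preincubation with enzyme, 25 min cleavage at room temperature. Detection: AMC fluorescence intensity at 355/460 nm.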
HNF4A DNA FP: change in binding of human HNF4 alpha to DNA. HNF4a-FITC DNA binding, fluorescence polarization, 1 h. activity change, % at 10 µM. hit rate 0.3% among 360,000. AID 1224865; in the data active = activity change above about 30%, passing the limit was not always enough;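 note: controls were the assay level and a saturating level of protein; the project sought stronger binding though the title names inhibitors; some compounds called inactive have numbers as strong as hits; positive values seem to mean higher polarization but the record does not say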
FGF22 binding: shifts melting point of recombinant human FGF22; calls only at 9.99 µM; AID 651658; hit rate 1.5% among 340,000; Q9HCT0; recombinant FGF22 thermal shift, SYPRO orange fluorescence; percent of sucrose octasulfate shift, DMSO zero;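 active = melting point raised past a set limit in the mean and every replicate; three in four hits are not shown here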
Target sequence (Q9HCT0 whole entry, looked up): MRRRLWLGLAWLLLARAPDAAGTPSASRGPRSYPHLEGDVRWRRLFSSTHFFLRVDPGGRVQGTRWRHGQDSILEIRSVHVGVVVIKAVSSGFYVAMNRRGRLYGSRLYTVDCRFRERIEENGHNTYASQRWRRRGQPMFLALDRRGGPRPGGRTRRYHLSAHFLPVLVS
ALR inh: blocks human ALR sulfhydryl oxidase activity; P55789; purified ALR, DTT oxidation, H2O2 HRP-luminol luminescence; inhibition, % (concentration not given with the values); hit rate 3.8% among 290,000;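 active = mean and each replicate at 75% or more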;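 note: stock transfer was 7.5 nL into about 7.5 µL; 0% = neutral wells and 100% = wells with inactivated enzyme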
Target sequence (P55789 whole entry, looked up): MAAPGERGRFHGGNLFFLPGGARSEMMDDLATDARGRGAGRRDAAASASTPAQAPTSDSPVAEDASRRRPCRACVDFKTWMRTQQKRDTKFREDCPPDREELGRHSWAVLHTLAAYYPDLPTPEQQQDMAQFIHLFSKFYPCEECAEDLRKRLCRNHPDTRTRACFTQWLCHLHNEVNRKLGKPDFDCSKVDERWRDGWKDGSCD
rRNA inh HTS: selective bacterial rRNA inhibition in E. coli | hit rate 1.6% among 350,000 | E. coli WT GFP vs humanized-ribosome RFP mutants, fluorescence, 24 h; stronger effect = lower value; DMSO median 0, no signal -100 | GFP signal change (wild-type ribosome), % (test concentration not listed);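 active = significant combined selectivity score with lowered wild-type GFP, culture density cut under 30%, mutant RFP and density less affected; inactive = any of these conditions unmet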; note: one replicate is shown; some compounds called inactive have numbers as strong as hits
B2AR ag: agonists of human beta-2 adrenergic receptor inducing internalization. Am2.2-beta2AR cells, FAP receptor internalization, flow cytometry; reference of the scale not given here. response, % (concentration not given with the values). P07550. hit rate 0.43% among 340,000;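 active = response above a set limit, near 3 SD of response in nonfluorescent compounds, cut at about 42% in these data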;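 note: stock transfer was 100 nL into about 11 µL; a reference agonist was the positive control; negative values mostly stem from fluorescent compounds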
Target sequence (P07550 whole entry, looked up): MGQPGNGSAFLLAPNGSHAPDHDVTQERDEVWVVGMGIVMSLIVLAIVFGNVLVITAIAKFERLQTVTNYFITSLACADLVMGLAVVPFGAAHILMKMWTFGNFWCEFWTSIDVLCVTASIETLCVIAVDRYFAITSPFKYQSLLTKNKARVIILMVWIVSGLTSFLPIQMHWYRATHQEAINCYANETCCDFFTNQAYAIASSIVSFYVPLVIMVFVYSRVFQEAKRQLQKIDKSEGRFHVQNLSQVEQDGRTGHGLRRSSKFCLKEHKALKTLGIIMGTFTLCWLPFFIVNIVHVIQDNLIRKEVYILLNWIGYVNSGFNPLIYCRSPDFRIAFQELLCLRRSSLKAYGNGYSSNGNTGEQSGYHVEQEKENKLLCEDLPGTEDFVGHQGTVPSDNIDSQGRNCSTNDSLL
E coli growth: E. coli growth inhibition | Escherichia coli growth, OD600, 23 h; stronger effect = lower value | hit rate 0.21% among 330,000 | OD600 absorbance (concentration not given with the values);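 active = OD600 absorbance below the run mean of sample wells minus 3.6 SD, in any replicate, cut at about 0.56 in these data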;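 note: stock transfer was 300 nL into about 60 µL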
rRNA inh HTS OD600: also measured in rRNA inh HTS; calls as there; OD600 change, %; measured here: OD600 growth;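 optical density of the mix in the first replicate; 0 = DMSO median and -100 = no signal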
rRNA inh HTS RFP: recorded beside rRNA inh HTS, whose call it bears; RFP signal change, %; measured here: RFP humanized mutant strains;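 first replicate; 0 = DMSO median and -100 = no signal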
Active calls of the source: *; i = inactive; nt = not tested or not shown.

structure	UCH37 DUB inh	FGF22 binding	rRNA inh HTS OD600	rRNA inh HTS RFP	HNF4A DNA FP	B2AR ag	ALR inh	E coli growth	rRNA inh HTS
CC(=O)NNc1nc(-c2ccc(C)cc2)cs1	1.2	i	-7	2.9	2.5	2	83*	0.67	-1
CN(C(=O)c1ccccc1)C1(C)CCS(=O)(=O)C1 (stereo unspecified)	-0.8	nt	nt	nt	-3.5	2	-3	0.74	nt
CCCN(C(=O)C1=COCCO1)c1c(N)n(Cc2ccccc2)c(=O)[nH]c1=O	-0.7	i	1	-2.9	-1.5	-2	-2	0.71	1
COc1ccccc1Nc1nc(-c2ccccc2)nc2ccccc12	-58	i	-7	-3.6	-3.1	-13	11	0.68	1
COc1cccc(OCCNS(=O)(=O)c2cccc([N+](=O)[O-])c2)c1	-0.8	i	-4	-0.8	-1.8	-4	-5	0.65	-2
S=c1nc(C2CC2)[nH]c2ccccc12	9.1	nt	nt	nt	-5.5	9	6	0.71	nt
CC(=O)N1CCN(c2ccc(NC(=O)COc3ccc(Cl)cc3Cl)cc2)CC1	2.6	nt	nt	nt	-0.4	-15	-7	0.68	nt
CC(=O)c1ccc(NS(=O)(=O)c2cccc(C(=O)Nc3ccccc3C(=O)O)c2)cc1	1.9	nt	-3	-1.1	-4.7	-4	nt	0.71	5
C=CCn1c(SCC(=O)NC2CCCC2)nc2sc(C)cc2c1=O	0.2	nt	5	-1.4	-6.2	-3	nt	0.68	4
COc1ccc(N(CC(=O)Nc2ccc(F)c(F)c2)S(=O)(=O)c2c(C)[nH]c(=O)[nH]c2=O)cc1	0.5	i	0	0.7	-2.7	-6	1	0.6	-3
N#CCc1ccccc1C(=O)OCC(=O)N(Cc1ccccc1)Cc1ccccc1	4.2	i	-35	-3.6	0.4	-2	-3	0.7	1
COc1ccc(Cc2nnc(NC(=O)c3ccccc3F)s2)cc1	1.9	i	0	-0.5	1.5	1	-1	0.62	-5
Cn1c(=O)n(C)c2cc(NC(=O)c3cccc([N+](=O)[O-])c3)c(Br)cc21	6.6	i	8	-0.1	-1.9	0	nt	0.67	7
CN(CC(=O)Nc1n[nH]c(=S)s1)S(=O)(=O)c1cccc2cccnc12	2.3	i	4	1.9	-2.6	2	36	0.63	-2
CC(=O)c1cc2c(=O)c3ccccc3oc2nc1C	1.1	nt	nt	nt	-2.3	-8	-2	0.77	nt
CC(C)(C)NC(=O)CSc1nnc(NC(=O)c2ccccc2Cl)s1	3.9	i	-7	-0.3	-1.5	3	1	0.69	-3
COc1ccc(CCNC(=O)CN2CCN(c3cccc(Cl)c3)CC2)cc1OC	2.3	nt	nt	nt	5.1	0	8	0.72	nt
c1csc(C2Nc3ccccc3-c3nc4ccccc4n32)c1 (stereo unspecified)	i	nt	nt	nt	0.7	-7	-5	0.68	nt
O=C(CN1C(=O)NC(Cc2ccccc2)C1=O)Nc1ccccc1F (stereo unspecified)	3.8	i	nt	nt	-3.5	-3	nt	0.71	nt
Cc1nn(C)c(C)c1NS(=O)(=O)c1ccc(OC(F)(F)F)cc1	4.8	i	17	3.6	1.8	9	-3	0.68	14
CS(=O)(=O)c1ccc(NC(=O)c2cc3c(cc2Cl)N2CCCCCC2=NS3(=O)=O)cc1	-2.5	i	-20	21	-1.6	-6	nt	0.63	-14
Cc1cc(C)c(C)c(S(=O)(=O)N2CCN(c3ncnc4ccccc34)CC2)c1C	-1.5	i	3	1.9	4.3	12	nt	0.67	-3
O=C(COC(=O)C1CC1)Nc1ncc(Cl)cc1Cl	6.2	i	20	3.1	-9.2	11	-6	0.69	10
COC(=O)c1ccc(/C=N\N2CCN(Cc3ccc(C)cc3)CC2)cc1	nt	i	18	5.7	0.1	5	-2	nt	5
OC(COc1ccccc1)Cn1cc(Br)cn1 (stereo unspecified)	0.1	nt	nt	nt	2.6	-5	-8	0.68	nt
CCN(CC)CCCNC(=O)Cn1ncc2c(=O)oc3ccc(C)cc3c21	3.1	i	2	3.9	5.1	-14	3	0.82	5
COCCN(CC(=O)Nc1cccc(C)c1C)C(=O)c1ccc2ccccc2n1	4.5	i	5	1.7	-1.6	16	nt	0.71	12
Cn1c(=O)c(=O)n(C)c2cc(S(=O)(=O)N3CCC(N4CCCCC4)CC3)ccc21	0.2	nt	16	1.9	-3.7	-4	-17	0.74	11
COc1ccc(NC(=O)/C=C2\SC(=O)NC2=O)cc1	7.4	i	-1	-8.5	-0.1	3	97*	0.69	1
Cc1cc(Nc2ccc(C(=O)N3CCCCC3)cc2)c2cccc(C)c2n1	7.5	i	16	-0.6	0.9	2	-4	0.7	6

A stretch from further up, as a working copy:
structure	UCH37 DUB inh	FGF22 binding	rRNA inh HTS OD600	rRNA inh HTS RFP	HNF4A DNA FP	B2AR ag	ALR inh	E coli growth	rRNA inh HTS
CC(=O)NNc1nc(-c2ccc(C)cc2)cs1	1.2	i	-7	2.9	2.5	2	83*	0.67	-1
CN(C(=O)c1ccccc1)C1(C)CCS(=O)(=O)C1 (stereo unspecified)	-0.8	nt	nt	nt	-3.5	2	-3	0.74	nt

(next part)
structure	UCH37 DUB inh	FGF22 binding	rRNA inh HTS OD600	rRNA inh HTS RFP	HNF4A DNA FP	B2AR ag	ALR inh	E coli growth	rRNA inh HTS
CCN(CC)S(=O)(=O)c1cc(NC(=O)c2cc(-c3ccccn3)nc3ccccc23)ccc1C	-0.2	i	-4	2.1	-5.1	9	nt	0.71	-3
COc1ccccc1-n1c(C)nnc1SCC(=O)NCc1ccccc1	-0.5	nt	nt	nt	2.3	4	nt	0.69	nt
COc1ccc(N2C(=O)CC(Sc3nnnn3-c3ccc(F)cc3)C2=O)cc1 (stereo unspecified)	3.4	i	9	2.4	-6.2	17	15	0.69	5
O=C(NCc1ccccc1)c1c(Cl)nc(Cl)c(Cl)c1Cl	5.5	i	13	1.1	-3.1	12	12	0.66	8
COC(=O)C1(C(=O)OC)c2ccccc2N(S(=O)(=O)c2ccc(C)cc2)C1CC(C)=O (stereo unspecified)	nt	i	26	3.1	1.5	nt	nt	nt	22
COc1ccc(-c2csc(NC(=O)C3=NN(c4ccccc4)C(=O)CC3)n2)cc1	-0.9	i	11	22	-0.3	7	nt	0.66	9
COc1cc(NC(=O)c2cccc(F)c2)ccc1NC(=O)c1cc2ccccc2o1	-10	i	2	-1.3	5.8	16	-12	0.69	3
CCn1c(SCC(=O)Nc2nccs2)nnc1-c1ccc(S(=O)(=O)N2CCCCCC2)cc1	3.7	nt	nt	nt	5.8	-4	nt	0.68	nt
Cc1ccc(C(=O)Nc2ccc3c(c2)nc2n3CCSC2)cc1	1.0	nt	nt	nt	1.6	-13	98*	0.65	nt
Cc1ccc(NS(=O)(=O)c2cc(C(=O)Nc3cccc(N(C)S(C)(=O)=O)c3)ccc2C)c(C)c1	5.2	i	-24	-5.2	1.3	0	-1	0.68	-20
O=C(O)CCn1cc(-c2ccc(Cl)cc2)nc1-c1ccc(Cl)nc1	0.3	i	7	-0.8	1.5	-8	34	0.69	-10
Cc1cccc(NC(=O)NCc2ccc3c(c2)OCO3)c1C	0.4	i	3	-2.4	0.9	-2	-5	0.65	1
O=C(CCn1nnc2ccccc2c1=O)N[C@@H](Cc1ccccc1)C(=O)O	4.0	nt	nt	nt	-3.8	5	4	0.71	nt
O=C(O)C1Nc2ccc(C(F)(F)F)cc2C2OCCC12 (stereo unspecified)	3.2	nt	nt	nt	0.0	-8	35	0.7	nt
COc1cccc(NC(=O)N2CCCC2C(=O)NC23CC4CC(CC(C4)C2)C3)c1 (stereo unspecified)	1.0	i	7	-0.6	-3.9	-2	nt	0.65	8
COC(=O)c1ccccc1NC(=O)c1cn(-c2ccc(C)c(C)c2)c(=O)c2ccccc12	-4.4	nt	nt	nt	0.1	6	-11	0.73	nt
Cc1ccc(S(=O)(=O)N2CCN(Cc3nc4ccccc4[nH]3)CC2)cc1C	-1.1	nt	nt	nt	-0.2	-2	2	nt	nt
Cc1ccc2[nH]c(=O)c(COC(=O)c3ccccn3)cc2c1	-0.3	nt	nt	nt	-2.2	-7	0	0.69	nt
Cc1ccc(C)c(NC(=O)CN(C)C(=O)c2cccc(S(=O)(=O)N(C)C)c2)c1	3.7	i	16	2.3	3.9	2	-2	0.66	22
COc1ccc(NC(=O)c2ccco2)cc1S(=O)(=O)N1CCOCC1	4.4	nt	10	-1.1	-7.1	-17	-5	0.67	10
CCOC(=O)C1=C(C)NC2=C(C(=O)CC(C)(C)C2)C1c1ccc2c(c1)CCCN2C (stereo unspecified)	-6.6	nt	nt	nt	4.1	-5	99*	0.74	nt
CCCC(C(=O)NC1CCCC1)N(CCCN1CCOCC1)C(=O)c1snc(C(N)=O)c1N (stereo unspecified)	-44	i	12	0.7	0.7	-4	-2	0.65	23
O=C(Cc1ccccc1)Nc1nc(=O)c2ccccc2s1	5.2	nt	nt	nt	1.2	5	-10	0.78	nt
O=C(c1ccco1)N1CCN(Cc2nnnn2CC2CCCO2)CC1 (stereo unspecified)	-0.9	i	2	-1.5	1.9	3	-6	0.73	8
CC(C)(C)NC(=O)C(c1ccc(Cl)cc1)N(CCO)C(=O)c1snc(C(N)=O)c1N (stereo unspecified)	-65	i	4	0.6	6.0	-6	-9	0.67	0
N#Cc1c(NC(=O)c2ccccc2)sc2c1CCC2	-36	nt	nt	nt	-2.0	-1	-6	0.73	nt
CCOC(=O)Cc1c(C)nc(-c2ccccc2)[nH]c1=O	2.0	nt	nt	nt	9.8	-9	-4	0.67	nt
O=C(Nc1ccc2oc(-c3cccc(F)c3)nc2c1)c1ccccc1F	-205	i	6	3.3	-1.1	7	-1	0.67	3
CC(C)C(OC(=O)c1ccco1)C(=O)NCc1cccs1 (stereo unspecified)	-0.1	nt	nt	nt	3.4	3	nt	0.67	nt
COc1ccccc1CCn1cnc2c3cc(C)ccc3n(C)c2c1=O	-40	nt	nt	nt	-0.6	-5	-26	0.71	nt
Fc1ccc2nc(Nc3ccccc3)sc2c1	0.2	nt	3	-0.7	4.9	-9	-4	0.68	8
CCc1ccc(NC(=O)CN(C(=O)N2CCN(CC)CC2)S(=O)(=O)c2ccc(C)cc2)cc1	-0.2	i	10	1.3	3.7	1	nt	0.63	8
Cc1ccc(C)c(N2CC(C(=O)Nc3cc(C)on3)CC2=O)c1 (stereo unspecified)	4.2	i	7	4.6	0.9	0	-8	0.67	17
NC(c1ccccc1)c1csc(Nc2ccccn2)n1 (stereo unspecified)	nt	i	8	3.2	2.0	nt	nt	nt	9
COc1ccc(N(CC(=O)N2CCc3ccccc3C2)S(=O)(=O)c2c(C)[nH]c(=O)[nH]c2=O)cc1	4.9	i	7	-1.4	-0.9	-9	-4	0.67	5
CCOc1cc(N2CCOCC2)c(OCC)cc1NC1=NCCCCC1	2.9	nt	nt	nt	-1.5	2	5	0.69	nt
O=C(OC1C2C=CC1C1C(=O)NC21)c1ccccc1 (stereo unspecified)	nt	i	28	-0.3	0.5	nt	nt	nt	19
Cc1ccc2nc(C)cc(Cl)c2c1	0.2	i	8	-0.2	-0.9	4	28	0.68	10
O=C(c1cc2c(=O)oc3ccccc3c2s1)N1CCOCC1	4.7	nt	nt	nt	-1.6	-26	1	0.7	nt
CN(Cc1ccccc1)C(=O)CSc1cc(=O)n(C)c2ccccc12	-1.2	i	-35	-4.0	1.1	-12	5	0.7	-27
CC1=C(C(=O)N(C(C)C)C(C)C)CC(CC(=O)NCc2ccco2)C(=O)N1CCC1=CCCCC1 (stereo unspecified)	nt	i	-16	-1.1	-2.4	nt	nt	nt	-8

Compound activity from PubChem BioAssay.

Only part of the results is shown; the hit share may differ from the screen's.
